Source: PubChem BioAssay
rRNA inh HTS = inhibits bacterial ribosomal RNA function over humanized ribosomes; E. coli WT GFP vs humanized-ribosome RFP mutants, fluorescence, 24 h; hits give low values; DMSO median 0, no signal -100; GFP signal change (wild-type ribosome), % (no concentration beside the values); 1.6% of 350,000 active; AID 720706;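 active = significant combined selectivity score with lowered wild-type GFP, culture density cut under 30%, mutant RFP and density less affected; inactive = any of these conditions unmet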; note: one replicate is shown; some compounds called inactive have numbers as strong as hits
Ecoli growth = inhibitors of Escherichia coli growth | OD600, 23 h; hits give low values | OD600 absorbance (test concentration not listed) | 0.21% of 330,000 active;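 active = OD600 absorbance below the run mean of sample wells minus 3.6 SD, in any replicate, cut at about 0.56 in these data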;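 note: stock transfer was 300 nL into about 60 µL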
AF4-AF9 inh = inhibitors of human MLL-AF4/AF9 interaction; inhibition, % at 10 µM; AlphaScreen, biotin-AF4 peptide binding to FLAG-AF9; 0.47% of 350,000 active;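 active = every replicate reaching a set inhibition limit, whatever the replicate mean, cut at about 25% in these data; inconclusive = mean inhibition reaches that limit but some replicates miss it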;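 note: 0% = plate neutral control median and 100% = total signal loss; the record names both 10 and 1 µM as test concentration; the first replicate is given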
Target sequence (P42568 whole entry, looked up): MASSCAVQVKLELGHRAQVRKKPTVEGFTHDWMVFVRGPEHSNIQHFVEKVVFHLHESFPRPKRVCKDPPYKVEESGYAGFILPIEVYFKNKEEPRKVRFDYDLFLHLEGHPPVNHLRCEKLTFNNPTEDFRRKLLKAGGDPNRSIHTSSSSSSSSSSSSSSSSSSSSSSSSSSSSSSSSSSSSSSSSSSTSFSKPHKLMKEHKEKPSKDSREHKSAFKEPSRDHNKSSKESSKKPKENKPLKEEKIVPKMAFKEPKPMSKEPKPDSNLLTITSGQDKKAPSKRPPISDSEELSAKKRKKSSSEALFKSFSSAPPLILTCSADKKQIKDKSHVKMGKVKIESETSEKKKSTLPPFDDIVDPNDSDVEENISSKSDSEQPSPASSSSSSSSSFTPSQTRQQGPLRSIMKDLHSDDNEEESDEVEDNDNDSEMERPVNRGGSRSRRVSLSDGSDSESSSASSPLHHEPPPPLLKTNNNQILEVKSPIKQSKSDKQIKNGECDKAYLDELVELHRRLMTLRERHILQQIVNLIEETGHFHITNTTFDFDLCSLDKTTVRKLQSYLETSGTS
Beta cell apopt = beta cell apoptosis inhibition; INS-1E cytokine-induced death, ATP luminescence, 48 h; percent of positive-control rescue, neutral wells zero; protection from apoptosis, % (test concentration not listed); 0.8% of 300,000 active; AID 435005;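 active = all replicates at 75% or more, or half of them and the mean; inconclusive = half reach 75% but not the mean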;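 note: 0% = cytokine-treated negative control wells and 100% = positive control rescue; higher means more ATP so stronger rescue from cytokine killing; wells of about 40 µL received 100 nL stock; the first replicate is given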
T cruzi repl = T. cruzi replication inhibition; T. cruzi beta-gal in NIH3T3, luminescence, 90 h; inhibition, % (concentration not given with the values); 1.4% of 300,000 active; AID 1885;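 active = mean inhibition across valid replicates above about 55%, limit read from the data; inconclusive = mean below that limit but half or more replicates reach it; inactive = mean below it, under half of replicates reach it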;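 note: signal also drops with host cell toxicity which is not excluded here; 0% = plate median of DMSO wells and 100% = zero luminescence signal; higher percent means less beta-gal luminescence so fewer parasites; stock transfer was 50 nL into about 50 µL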
UCH37 inh = blocks the human deubiquitinase UCH37 | Q9Y5K5 | purified proteasome/UCH37, Ub-AMC cleavage fluorescence | inhibition, % (no concentration beside the values) | 0.33% of 330,000 active | AID 588478;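 active = mean of two replicates above 20%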;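 note: 0% = compound-free wells with enzyme and 100% = wells lacking proteasome; stock transfer was 100 nL into about 20 µL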
Target sequence (Q9Y5K5 whole entry, looked up): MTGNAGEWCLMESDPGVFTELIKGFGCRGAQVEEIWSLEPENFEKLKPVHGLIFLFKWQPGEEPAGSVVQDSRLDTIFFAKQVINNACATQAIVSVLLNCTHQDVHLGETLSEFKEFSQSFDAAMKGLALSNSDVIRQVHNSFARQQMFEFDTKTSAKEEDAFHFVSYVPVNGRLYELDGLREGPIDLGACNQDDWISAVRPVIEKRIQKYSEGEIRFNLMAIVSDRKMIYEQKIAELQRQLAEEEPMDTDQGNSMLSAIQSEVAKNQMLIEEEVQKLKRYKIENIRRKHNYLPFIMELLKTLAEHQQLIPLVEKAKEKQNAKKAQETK
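Assay system: Proteasome-bound UCH37. Buffer or medium: pH 7.4 Tris-HCl (50 mM) with ovalbumin, ATP-MgCl2, DTT. Incubation: 30 min preincubation with enzyme, 25 min cleavage at room temperature. Measured by: fluorescence, ex 355 nm, em 460 nm. Read-out basis: percent inhibition. Control set: wells without proteasome as full block, compound-free enzyme plus substrate as uninhibited.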
Bfl-1 A1 inh = inhibitors of the anti-apoptotic protein A1, read as caspase activation; 0.066% of 330,000 active; caspase activation, % (concentration not given with the values); AID 2462; MEF A1-2A-BIM cells, Caspase-Glo 3/7 luminescence, 3 h; percent of clofoctol response, vehicle zero;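 active = over half of replicate activation scores above 10%, or exactly half above 10 with the replicate mean above 10; inconclusive = replicate mean below 10 yet half the replicates above 10; inactive = over half of replicates below 10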;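 note: wells of about 30 µL received 50 nL stock; many hits fall short of the cut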
FGF22 binding = binders of recombinant human FGF22 by thermal shift | Q9HCT0 | SYPRO orange fluorescence; percent of sucrose octasulfate shift, DMSO zero | calls only at 9.99 µM | 1.5% of 340,000 active | AID 651658;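 active = melting point raised past a set limit in the mean and every replicate; inconclusive = no clear call; three in four hits are not shown here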
Target sequence (Q9HCT0 whole entry, looked up): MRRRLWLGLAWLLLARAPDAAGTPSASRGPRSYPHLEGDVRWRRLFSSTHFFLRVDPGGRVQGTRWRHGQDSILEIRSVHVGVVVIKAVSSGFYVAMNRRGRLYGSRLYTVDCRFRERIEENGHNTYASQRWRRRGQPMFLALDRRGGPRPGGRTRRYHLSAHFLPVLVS
rRNA inh HTS OD600 = also measured in rRNA inh HTS; calls as there; OD600 change, %; measured here: OD600 growth;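 optical density of the mix in the first replicate; 0 = DMSO median and -100 = no signal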
rRNA inh HTS RFP = recorded beside rRNA inh HTS, whose call it bears; RFP signal change, %; measured here: RFP humanized mutant strains;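 first replicate; 0 = DMSO median and -100 = no signal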
Starred values were filed as active, the others as inactive; i = inactive; ? = inconclusive; . = not tested or not shown. The list is partial, so the mix of outcomes need not match the whole.

SMILES | rRNA inh HTS | rRNA inh HTS OD600 | rRNA inh HTS RFP | Ecoli growth | AF4-AF9 inh | Beta cell apopt | T cruzi repl | UCH37 inh | Bfl-1 A1 inh | FGF22 binding
CCOc1cc(-c2sc(Nc3ccccc3)n[n+]2C)ccc1OC | -8 | -7 | 1.4 | . | -5.5 | 2 | -12 | 2.0 | 0.4 | i
Cc1c(NC(=O)N(C)C)c(=O)n(-c2ccccc2)n1C | . | . | . | 0.74 | . | -2 | -1 | 3.1 | 0.5 | .
CCOC(=O)C1CCCN(S(=O)(=O)CCNC(=O)c2ccc(F)cc2)C1 (centres undefined) | 2 | 1 | -1.8 | 0.7 | -0.2 | -2 | 0 | 4.1 | 0.8 | i
CN(CC(=O)Nc1ccccc1Cl)C(=O)COC(=O)c1ccc(S(=O)(=O)C(F)F)cc1 | 0 | -5 | -1.6 | 0.64 | -0.1 | -3 | -1 | 1.4 | -0.2 | i
CCN(C(=O)CSc1nnc(Cc2ccccc2F)n1N)C1CCS(=O)(=O)C1 (centres undefined) | . | . | . | 0.66 | . | 0 | -12 | 27* | -0.9 | .
CCCCC#Cc1ccc2c(c1)COc1c3ccccc3nn1-2 | . | . | . | 0.69 | 12 | 3 | -4 | -1.2 | -6.5 | i
O=C(Nc1cccnc1)c1ccc([N+](=O)[O-])cc1Cl | 11 | 10 | 1.8 | 0.62 | -3.6 | 2 | 1 | 0.9 | -1.2 | i
CCCSc1nc2sc3c(c2c(=O)[nH]1)CC(C)CC3 (centres undefined) | 23 | 14 | 2.1 | 0.76 | -0.1 | 4 | -11 | -1.6 | -0.1 | i
COc1cc(C2C(C(=O)c3cccs3)=C(O)C(=O)N2CCN2CCOCC2)ccc1OCCC(C)C (centres undefined) | 4 | 12 | 4.9 | 0.6 | 1.9 | -4 | -18 | 7.8 | -0.5 | i
CCNc1nc(NC(C)C)nc(Oc2ccc(OCCOc3ccc(C)cc3)nn2)n1 | 8 | 1 | -1.9 | 0.68 | -30 | 5 | 3 | 0.9 | 0.4 | i
O=C(Nc1ccc(F)cc1)c1cccc2ccccc12 | 1 | 1 | -1.8 | 0.68 | 2.9 | 5 | -13 | 2.1 | 0.4 | i
CNC(=S)N1N=C(c2cccs2)CC1c1ccc(OC)cc1 (centres undefined) | -21* | -12* | 2.2* | 0.65 | 13 | 3 | 9 | -9.7 | 0.9 | i
O=[N+]([O-])c1ccccc1/C=C/CN1CCCCC1 | . | . | . | 0.66 | . | 0 | -6 | 5.6 | 1.3 | .
NC(=O)c1cc2cc(Br)ccc2oc1=NCc1ccccc1 | . | . | . | 0.75 | . | -13 | -10 | 3.4 | ? | .
COc1ccc(Cl)cc1NS(=O)(=O)c1c(C)[nH]c(=O)[nH]c1=O | -5 | 3 | -21 | 0.67 | -0.7 | -3 | -11 | 0.9 | -0.4 | i
COc1ccc(C(C(=O)NCC2CCCO2)N(C(=O)c2snc(C(N)=O)c2N)c2ccccc2C)cc1OC (centres undefined) | 18 | 16 | 0.2 | 0.69 | -2.8 | -5 | 1 | i | -0.1 | i
COc1ccc(/C=C2/C(=N)N3C(=NC2=O)Sc2cc(S(C)(=O)=O)ccc23)cc1OC | . | . | . | 0.72 | . | -3 | -17 | -5.4 | -1.8 | .
CCNC(=S)N(Cc1cccs1)Cc1cc2cc(OCC)ccc2[nH]c1=O | . | . | . | 0.71 | . | -8 | 23 | -29 | -0.5 | .
CN1CCN(S(=O)(=O)c2ccc(N3CCN(C(c4ccccc4)c4ccccc4)CC3)nc2)CC1 | 15 | 7 | 1.4 | 0.7 | -0.3 | 1 | 18 | -1.3 | 0.5 | i
COc1ccccc1N1CCN(CC(=O)c2c[nH]c3ccccc23)CC1 | -5 | 7 | 3.7 | 0.62 | -15 | 0 | 10 | 0.3 | 0.4 | i
CC1=C(C#N)C(/C=N/OCc2ccc(Cl)cc2)CC(=O)N1 (centres undefined) | -16 | -2 | 9.2 | . | -0.3 | -3 | -15 | . | -0.2 | i
O=C(O)C1CN(C(=O)c2cccc(Br)c2)C1 | 17 | 8 | -2.1 | 0.7 | -1.6 | . | -11 | 3.4 | 0.4 | .
O=C(CCc1ccccc1)Nc1ccc(F)cc1F | 8 | 3 | -1.4 | 0.66 | 2.4 | -15 | -10 | 5.3 | -1.0 | i
O=C(CN(c1cccc(C(F)(F)F)c1)S(=O)(=O)c1ccc(Cl)c([N+](=O)[O-])c1)NCc1ccccc1Cl | . | . | . | 0.74 | . | -9 | 23 | -1.8 | -0.3 | .
CC1=C(C(=O)Nc2cc(C(=O)N(C)Cc3ccccc3)ccc2C)SCCO1 | -2 | 1 | 5.8 | 0.66 | -0.1 | -4 | 14 | 0.4 | -0.4 | i
COc1ccc(-c2nc(NC(=O)c3c(C)noc3C)sc2C)cc1 | 4 | 9 | -0.2 | 0.68 | -3.4 | . | . | -0.5 | . | i
CCOC(=O)C1=C(C)Nc2ccccc2N=C1NC(=O)CCCN1C(=O)c2ccccc2C1=O | . | . | . | 0.71 | . | -4 | -21 | 4.2 | 1.0 | .
COc1ccc(NC(=O)COC(=O)c2cc(S(=O)(=O)N3CCCC3)ccc2O)cc1 | -4 | 10 | 1.7 | 0.67 | -2.6 | -7 | . | -9.2 | -0.1 | i
Cc1sc2ncnc(N3CCN(Cc4ccccc4)CC3)c2c1-c1ccccc1 | -53 | -71 | -12 | 0.67 | 11 | 4 | 14 | 2.6 | 0.4 | i
Cc1ccc(Cn2c(Sc3nnc(C)s3)nc3c2c(=O)[nH]c(=O)n3C)cc1 | 4 | 16 | -0.7 | 0.75 | -1.4 | -4 | -3 | 3.7 | . | i
Nc1nonc1-n1nnc(C(=O)N/N=C/c2ccccc2F)c1-c1cccs1 | 1 | 8 | 4.2 | . | -14 | -7 | -4 | . | -0.6 | i
Cc1c(NC(=O)c2ccc(Cl)nc2)cccc1-c1nc2cccnc2s1 | 12 | 12 | 6.7 | 0.69 | -18 | 4 | -9 | 0.3 | -0.9 | i
CC(C)n1cc(C(=O)N2CCCC(Nc3ccc(F)c(F)c3)C2)cn1 (centres undefined) | 2 | 15 | 1.4 | 0.7 | 0.0 | -2 | 4 | 1.1 | 1.3 | i
CCOc1ccc(N(CC(=O)NCc2ccc(OC)cc2)S(=O)(=O)c2c(C)[nH]c(=O)[nH]c2=O)cc1 | 3 | 9 | 0.7 | 0.63 | -6.2 | -3 | -1 | 1.4 | 1.0 | i
O=c1cc2n(c(=O)[nH]1)CCC1=C2CCCC1 | . | . | . | 0.72 | . | -1 | 1 | 1.3 | 0.1 | .
Cc1ccc(/C=N/NC(=O)CCSc2ccccc2)cc1 | -12 | -17 | 1.8 | . | 0.2 | -4 | 0 | . | -0.3 | i
O=C(O)c1ccc(N/N=C/c2ccnc3ccccc23)cc1 | -7 | -7 | -6.8 | . | 2.1 | -6 | 3 | . | -6.3 | i
CCOC(=O)C1=C(C)NC(C)=C(C(=O)OCC)C1C1=COCCO1 | . | . | . | 0.7 | . | -10 | 0 | 6.4 | 0.0 | .
Cn1nc(C(=O)Nc2nc3ccc(S(C)(=O)=O)cc3s2)ccc1=O | . | . | . | 0.76 | . | 10 | -10 | 10 | -11 | .
CC(C)c1ccccc1NC(=O)Nc1ccc(F)cc1F | 7 | 5 | 1.6 | 0.72 | -1.9 | -2 | -6 | 2.6 | 0.3 | i
CSc1ccc(C(=O)C2CCCN(Cc3cccn3-c3cccnc3)C2)cc1 (centres undefined) | . | . | . | 0.67 | 19 | 29 | 30 | 2.6 | 1.2 | i
N#CC1(NC(=O)CSc2nnc(COc3ccccc3F)n2N)CCCCC1 | 3 | -4 | 0.7 | 0.63 | 1.1 | -1 | 8 | 0.5 | 0.4 | .
CC(C)(C)N(Cc1ccccc1)C(=O)CSc1ncn[nH]1 | 10 | 7 | -2.6 | 0.7 | -0.9 | . | -3 | 3.3 | -0.9 | i
CC1(C)Cc2c(sc3nnn(Cc4ccc(Cl)cc4)c(=O)c23)CO1 | -10 | -12 | -7.0 | 0.73 | 7.9 | 2 | . | 6.0 | -0.7 | i
Cc1cc(NC(=O)/C=C/c2ccccc2)no1 | 15 | 8 | -0.7 | 0.65 | -3.1 | 7 | -30 | 3.7 | -1.8 | i
O=C(/C=C/c1ccco1)Nc1ccc(CN2CCOCC2)cc1 | . | . | . | 0.63 | 2.4 | -7 | . | 12 | 0.8 | i
O=c1c2ccccc2nc(COc2ccccc2)n1/N=C/c1cc([N+](=O)[O-])ccc1O | 6 | 6 | -2.1 | . | 2.3 | 79* | 35 | . | -4.3 | i
O=S(=O)(c1ccc(-c2ccon2)s1)N1CCN(CCN2CCOCC2)CC1 | 0 | 7 | 5.8 | 0.71 | 4.1 | -4 | -9 | 5.3 | -0.9 | i
CC(C)(C)C(=O)Nc1nc(-c2ccc3c(c2)OCO3)cs1 | . | . | . | 0.65 | . | -1 | 5 | 1.7 | 0.4 | .
COc1ccc(-n2c(SCC(=O)Nc3sc4c(c3C#N)CCCC4)nnc2-c2ccc(O)cc2)cc1 | 1 | 9 | -1.5 | 0.69 | . | 1 | -16 | 6.0 | 0.6 | .
O=S(=O)(Nc1cc(Sc2cccc3cccnc23)c(O)c2ccccc12)c1ccccc1 | -22 | -43 | -0.3 | . | 14 | . | 50 | . | . | i
CCOc1ccc(OCC)c(NS(=O)(=O)c2cn(C)cn2)c1 | 4 | 13 | -1.2 | 0.67 | 1.4 | -3 | -7 | -2.3 | -0.2 | i
Cc1nnc(SCC(=O)Nc2nc3c(s2)CC(C)CC3)s1 (centres undefined) | . | . | . | 0.66 | . | 2 | 12 | 3.6 | 0.2 | .
COc1ccc(OCC(=O)NCCCn2ccnc2)cc1 | 17 | -2 | 2.1 | 0.69 | 1.3 | . | 9 | 4.3 | -0.4 | i
Cc1noc(C)c1COC(=O)CCOc1ccccc1 | . | . | . | 0.66 | . | -5 | -9 | -1.4 | 0.0 | .
Cc1ccc(-n2[nH]c(=O)c3cccnc32)cc1 | . | . | . | 0.72 | . | 0 | 3 | 2.3 | 0.0 | .
COC(=O)c1cn(CC(=O)N2CCCCCC2)c2ccccc12 | . | . | . | 0.69 | . | 1 | -1 | 0.3 | 1.3 | .
O=C(NCCCN1CCOCC1)c1ccc2c(c1)N(Cc1ccc(F)cc1)CCS2 | -5 | -16 | 1.0 | 0.67 | 8.9 | 2 | 6 | i | 0.2 | i
O=C(NNC(=O)c1ccc(-n2cncn2)c([N+](=O)[O-])c1)c1ccc(Cl)cc1 | 7 | 9 | 1.5 | 0.59 | 0.5 | 4 | -6 | 5.1 | -0.5 | i
